Bioassay records from PubChem BioAssay.
FGF22 binding: binders of recombinant human FGF22 by thermal shift; SYPRO orange fluorescence; percent of sucrose octasulfate shift, DMSO zero; calls only at 9.99 µM; hit rate 1.5% among 340,000;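 active means melting point raised past a set limit in the mean and every replicate; three in four hits are not shown here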
Target sequence (Q9HCT0 whole entry, looked up): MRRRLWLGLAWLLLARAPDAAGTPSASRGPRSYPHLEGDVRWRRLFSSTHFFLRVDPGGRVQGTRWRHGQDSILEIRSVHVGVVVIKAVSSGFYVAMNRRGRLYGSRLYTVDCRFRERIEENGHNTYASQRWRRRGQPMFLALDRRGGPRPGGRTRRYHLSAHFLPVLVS
AF4-AF9 inh: MLL-AF4/AF9 protein interaction inhibition | P42568 | AlphaScreen, biotin-AF4 peptide binding to FLAG-AF9 | inhibition, % at 10 µM | hit rate 0.47% among 350,000 | AID 651704;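 active means every replicate reaching a set inhibition limit, whatever the replicate mean, cut at about 25% in these data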;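 further: 0% = plate neutral control median and 100% = total signal loss; the record names both 10 and 1 µM as test concentration; the first replicate is given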
Target sequence (P42568 whole entry, looked up): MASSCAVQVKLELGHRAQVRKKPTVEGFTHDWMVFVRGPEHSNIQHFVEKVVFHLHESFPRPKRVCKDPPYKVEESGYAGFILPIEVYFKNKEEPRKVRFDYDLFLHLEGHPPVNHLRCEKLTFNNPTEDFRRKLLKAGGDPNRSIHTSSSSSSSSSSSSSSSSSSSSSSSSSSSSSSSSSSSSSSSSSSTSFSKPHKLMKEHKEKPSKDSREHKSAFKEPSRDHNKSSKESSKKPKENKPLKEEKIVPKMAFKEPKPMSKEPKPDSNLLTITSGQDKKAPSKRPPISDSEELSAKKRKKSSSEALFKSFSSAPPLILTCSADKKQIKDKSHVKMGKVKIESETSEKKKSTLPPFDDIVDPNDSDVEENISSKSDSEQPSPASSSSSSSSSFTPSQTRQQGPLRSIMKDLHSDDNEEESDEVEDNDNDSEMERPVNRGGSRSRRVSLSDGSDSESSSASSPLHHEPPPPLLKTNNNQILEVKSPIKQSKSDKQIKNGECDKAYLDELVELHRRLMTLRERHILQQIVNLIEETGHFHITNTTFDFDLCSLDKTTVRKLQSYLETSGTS
* hit, by the source's call; & = joins results of further samples.

C[C@@H]1CN([C@H](C)CO)S(=O)(=O)c2ccc(-c3ccc(C#N)cc3)cc2O[C@H]1CN(C)C(=O)C1CC1 was read as FGF22 binding inactive and AF4-AF9 inh -12.
For Cc1ccc(-c2ccc([C@@H]3[C@@H](CO)N4CCCCN(S(=O)(=O)c5cccc(C)c5)C[C@@H]34)cc2)cc1 the results were FGF22 binding inactive and AF4-AF9 inh -5.6.
`O=C1O[C@H](c2ccccc2)[C@H](c2ccccc2)N2[C@H]1[C@@H](C(=O)NC[C@H](O)c1ccccc1)[C@]1(C(=O)Nc3ccc(C#CCCO)cc31)[C@H]2c1ccc(OCCO)cc1` gave FGF22 binding inactive and AF4-AF9 inh -0.6.
`COc1cccc(-c2ccc([C@H]3[C@H](CO)N4CCCCN(CC5CCOCC5)C[C@@H]34)cc2)c1` gave FGF22 binding inactive and AF4-AF9 inh 1.8.
CO[C@@H]1CN(C)C(=O)c2cc(NC(=O)c3cc(C)on3)ccc2OC[C@@H](C)N(S(=O)(=O)c2ccccc2)C[C@H]1C was read as FGF22 binding inactive and AF4-AF9 inh -0.3.
CN(C)C(=O)[C@]1(Cc2ccccc2CN=[N+]=[N-])N=C(c2ccc(OCCCO)cc2)O[C@@H]1c1ccccc1 was read as FGF22 binding inactive and AF4-AF9 inh 3.6.
For COc1ccc(NC(=O)N2CCCCN3[C@H](CO)[C@H](c4ccc(C5=CCCC5)cc4)[C@H]3C2)cc1 the results were FGF22 binding inactive and AF4-AF9 inh 15.
`Cc1noc(C)c1NC(=O)N(C)C[C@@H]1OCCCC[C@H](C)Oc2ccc(N(C)C)cc2C(=O)N([C@H](C)CO)C[C@H]1C` gave FGF22 binding inactive and AF4-AF9 inh 1.4.
COc1ccccc1NC(=O)N[C@H]1CC[C@H](CCn2cc(-c3ccccc3OC)nn2)O[C@H]1CO was read as FGF22 binding active and AF4-AF9 inh 2.4.
O=S(=O)(NC1CCN(Cc2ccc(OCCO)cc2)CC1)c1cccc2cccnc12 was read as FGF22 binding inactive and AF4-AF9 inh 10.
For C=C1C(=O)O[C@H]2[C@@H]1CC/C(CO)=C\CC[C@@]1(C)O[C@@H]21 the results were FGF22 binding inactive and AF4-AF9 inh -2.9.
For Cc1ccc(F)cc1S(=O)(=O)N1CCN(Cc2cccc(OCCO)c2)CC1 the results were FGF22 binding inactive and AF4-AF9 inh -4.1.
`CO[C@@H]1CN(C)C(=O)c2cc(NC(=O)C3CC3)ccc2OC[C@@H](C)N(Cc2ccccc2C(=O)O)C[C@H]1C` gave FGF22 binding inactive and AF4-AF9 inh 0.0.
For CN(C)CC(=O)N[C@@H]1C[C@@H]2O[C@H](CO)CC[C@@H]2O[C@@H]1CCc1ccc(C#Cc2ccccc2)cc1 the results were FGF22 binding inactive and AF4-AF9 inh 1.1.
Screening C[C@H](CO)N1C[C@H](C)[C@@H](CN(C)C(=O)C2CC2)Oc2cc(-c3ccc(C#N)cc3)ccc2S1(=O)=O returned FGF22 binding inactive and AF4-AF9 inh -10.
CO[C@H](CN(C)S(=O)(=O)c1cn(C)cn1)[C@@H](C)CN(C(=O)Nc1ccc(C(F)(F)F)cc1)[C@H](C)CO was read as FGF22 binding inactive and AF4-AF9 inh -2.5.
`CC1=C2[C@@H](c3ccccc3)OB(O)C[C@@H]2[C@@H]2C(=O)N(Cc3ccccc3)C(=O)[C@@H]2C1` gave FGF22 binding inactive and AF4-AF9 inh -0.8.
For CO[C@@H]1CN(C)C(=O)c2ccc(NC(=O)C3CCCC3)cc2OC[C@@H](C)N(S(=O)(=O)c2ccc(Cl)cc2)C[C@H]1C the results were FGF22 binding inactive and AF4-AF9 inh 3.4.
For COCC1=C2[C@@H](c3ccccc3)OB(O)C[C@@H]2n2c(=O)n(-c3ccccc3)c(=O)n2C1 the results were FGF22 binding inactive and AF4-AF9 inh -1.0.
`COc1ccc(NC(=O)O[C@@H](c2ccc(OC)c(O)c2)[C@H](CCO)OC)cc1` gave FGF22 binding inactive and AF4-AF9 inh -3.3.

No new results follow: nine of the compounds above.
CN(C)C(=O)[C@]1(Cc2ccccc2CN=[N+]=[N-])N=C(c2ccc(OCCCO)cc2)O[C@@H]1c1ccccc1 was read as FGF22 binding inactive and AF4-AF9 inh 3.6.
For COc1ccc(NC(=O)N2CCCCN3[C@H](CO)[C@H](c4ccc(C5=CCCC5)cc4)[C@H]3C2)cc1 the results were FGF22 binding inactive and AF4-AF9 inh 15.
`Cc1noc(C)c1NC(=O)N(C)C[C@@H]1OCCCC[C@H](C)Oc2ccc(N(C)C)cc2C(=O)N([C@H](C)CO)C[C@H]1C` gave FGF22 binding inactive and AF4-AF9 inh 1.4.
COc1ccccc1NC(=O)N[C@H]1CC[C@H](CCn2cc(-c3ccccc3OC)nn2)O[C@H]1CO was read as FGF22 binding active and AF4-AF9 inh 2.4.
O=S(=O)(NC1CCN(Cc2ccc(OCCO)cc2)CC1)c1cccc2cccnc12 was read as FGF22 binding inactive and AF4-AF9 inh 10.
For C=C1C(=O)O[C@H]2[C@@H]1CC/C(CO)=C\CC[C@@]1(C)O[C@@H]21 the results were FGF22 binding inactive and AF4-AF9 inh -2.9.
For Cc1ccc(F)cc1S(=O)(=O)N1CCN(Cc2cccc(OCCO)c2)CC1 the results were FGF22 binding inactive and AF4-AF9 inh -4.1.
`CO[C@@H]1CN(C)C(=O)c2cc(NC(=O)C3CC3)ccc2OC[C@@H](C)N(Cc2ccccc2C(=O)O)C[C@H]1C` gave FGF22 binding inactive and AF4-AF9 inh 0.0.
For CN(C)CC(=O)N[C@@H]1C[C@@H]2O[C@H](CO)CC[C@@H]2O[C@@H]1CCc1ccc(C#Cc2ccccc2)cc1 the results were FGF22 binding inactive and AF4-AF9 inh 1.1.

New compounds follow.
For C[C@H](CO)N1C[C@H](C)[C@H](CN(C)Cc2ccc3c(c2)OCO3)Oc2ncc(Br)cc2C1=O the results were FGF22 binding inactive and AF4-AF9 inh 4.0&-1.1.
`CO[C@H]1O[C@H](CO)[C@@H](OC(=O)Nc2cccc(F)c2)[C@H](OC(=O)Nc2ccccc2)[C@@H]1OC(=O)Nc1ccccc1` gave FGF22 binding inactive and AF4-AF9 inh 12.
`CCOC(=O)C1=CC[C@@H](c2ccccc2)[C@@]12CC/C(=C\c1ccccc1)C2=O` gave FGF22 binding inactive and AF4-AF9 inh 3.7.
Screening COc1ccccc1NC(=O)N1CCCCN2[C@H](CO)[C@H](c3ccc(C#CC4CC4)cc3)[C@H]2C1 returned FGF22 binding inactive and AF4-AF9 inh 12.
CCOC(=O)OC[C@@H]1[C@@H]2NC(=O)N(C)[C@@]1(COCc1ccc(OC)cc1)Oc1ccccc12 was read as FGF22 binding inactive and AF4-AF9 inh -0.3.
Screening O=C(C1=C[C@H](c2ccc(Br)cc2)C[C@H](OCc2ccc(CO)cc2)O1)N1CCCCCCC1 returned FGF22 binding inactive and AF4-AF9 inh -1.6.
For CCC(=O)Nc1ccc2c(c1)C(=O)N(C)C[C@@H](OC)[C@H](C)CN(Cc1ccccc1OC)[C@H](C)CO2 the results were FGF22 binding inactive and AF4-AF9 inh -5.8.
Screening C[C@H](CO)N1C[C@H](C)[C@H](CN(C)C(=O)Nc2ccc3c(c2)OCO3)Oc2c(NS(=O)(=O)c3ccccc3)cccc2C1=O returned FGF22 binding inactive and AF4-AF9 inh 1.4.
CC(=NNc1ccc2ccccc2n1)c1ccccn1 was read as FGF22 binding inactive and AF4-AF9 inh 20.
Screening O=C(N[C@H]1C[C@@H]2O[C@@H](CO)CC[C@@H]2O[C@@H]1CCc1ccc(-c2ccccc2)cc1)c1cnccn1 returned FGF22 binding inactive and AF4-AF9 inh 4.6.
C[C@@H]1CN([C@H](C)CO)C(=O)Cc2cc(NC(=O)NC3CCCCC3)ccc2O[C@@H]1CN(C)Cc1ccncc1 was read as FGF22 binding inactive and AF4-AF9 inh 0.8.
C[C@@H]1CN([C@H](C)CO)C(=O)c2cccc(NS(=O)(=O)c3cccs3)c2O[C@H]1CN(C)C(=O)Nc1ccc(C(F)(F)F)cc1 was read as FGF22 binding inactive and AF4-AF9 inh -1.1.
COc1ccc(CCNC(=O)[C@@]2(Sc3ccc(C)cc3)CC(=O)N(C3CCCCC3)[C@@H]2c2ccc(CO)cc2I)cc1 was read as FGF22 binding inactive and AF4-AF9 inh 0.5.
For O=C1c2ccccc2[C@@]2(Cc3ccccc3N(CCN3CCOCC3)C2=O)[C@H](c2ccc(CO)cc2)N1Cc1ccccc1Cl the results were FGF22 binding inactive and AF4-AF9 inh -1.9.
For Cc1cc(C)cc(N2C(=O)CS(=O)(=O)C2c2ccccc2)c1 (stereo unspecified) the results were FGF22 binding inactive and AF4-AF9 inh 1.1.
`O=C(C1CCCC1)N1CCCCN2[C@@H](CO)[C@H](c3ccc(C#CC4(O)CCCC4)cc3)[C@@H]2C1` gave FGF22 binding inactive and AF4-AF9 inh 2.8.
Screening CCCc1cn([C@H]2C[C@@H]3O[C@@H](CO)CC[C@@H]3O[C@@H]2CCc2ccc(C#CCc3ccccc3)cc2)nn1 returned FGF22 binding inactive and AF4-AF9 inh -1.4.
C[C@@H]1CCCCO[C@H](CN(C)Cc2ccc(Cl)c(Cl)c2)[C@@H](C)CN([C@@H](C)CO)C(=O)c2cc(NS(=O)(=O)c3ccccc3)ccc2O1 was read as FGF22 binding inactive and AF4-AF9 inh 1.5.
`CO[C@@H]1CN(C)C(=O)c2ccc(NC(=O)C3CCCC3)cc2OC[C@H](C)N(CCC(F)(F)F)C[C@@H]1C` gave FGF22 binding inactive and AF4-AF9 inh 0.9.
`COCCOC(=O)N1C(=O)[C@@]2(c3cc(C#Cc4ccc(OC)cc4)ccc31)[C@H](c1ccc(OCCO)cc1)N1[C@H](c3ccccc3)[C@H](c3ccccc3)OC(=O)[C@H]1[C@@H]2C(=O)N1CCN(c2ncccn2)CC1` gave FGF22 binding inactive and AF4-AF9 inh -3.0.
[N-]=[N+]=Nc1ccccc1C[C@@]1(C(=O)NCCN2CCOCC2)N=C(c2ccc(OCCCO)cc2)O[C@@H]1c1ccccc1 was read as FGF22 binding inactive and AF4-AF9 inh 3.6.
For C[C@@H]1CN([C@H](C)CO)C(=O)c2cccc(N(C)C)c2O[C@H]1CN(C)C(=O)Nc1ccc(C(F)(F)F)cc1 the results were FGF22 binding inactive and AF4-AF9 inh 1.2.
For COc1ccc(S(=O)(=O)N(C)C[C@H]2Oc3c(NC(=O)Nc4cccc5ccccc45)cccc3C(=O)N([C@H](C)CO)C[C@@H]2C)cc1 the results were FGF22 binding inactive and AF4-AF9 inh 3.8.
`COc1ccc([Si](C)(C)[C@H]2[C@H](CCn3cc(CCO)nn3)O[C@@]3(C(=O)N(C)c4c(Br)cc(C)cc43)[C@@H]2C)cc1` gave FGF22 binding inactive and AF4-AF9 inh 10.
For COC(=O)c1c(CC[C@@H](CO)NC(=O)N[C@@H](Cc2ccccc2)Cn2cc(-c3ccccc3)nn2)oc(C(=O)N2CCOCC2)c1C(=O)OC the results were FGF22 binding inactive and AF4-AF9 inh -2.5.
Screening CC(C)NC(=O)N(C)C[C@@H]1OCCCC[C@H](C)Oc2ccc(NC(=O)CCCN(C)C)cc2C(=O)N([C@@H](C)CO)C[C@H]1C returned FGF22 binding inactive and AF4-AF9 inh -18.
CCCNC(=O)[C@@H]1c2ccccc2C(=O)N(Cc2ccccc2OC)[C@H]1c1ccc(CO)cc1 was read as FGF22 binding inactive and AF4-AF9 inh -0.3.
C=CCN1C(=O)[C@@]2(O[C@@H](CCn3cc(CCO)nn3)[C@H]([Si](C)(C)c3ccc(OC)cc3)[C@H]2C)c2cc(NC(=O)c3ccc(OC)cc3)ccc21 was read as FGF22 binding inactive and AF4-AF9 inh 0.9.
O=C(O)[C@]1(Cc2ccccc2)N=C(c2ccc(OCCCO)cc2)O[C@@H]1c1ccccc1 was read as FGF22 binding inactive and AF4-AF9 inh -0.3.
For COCC#Cc1ccc([C@@H]2[C@@H](CO)N3CCCCN(S(=O)(=O)c4ccccc4F)C[C@@H]23)cc1 the results were FGF22 binding inactive and AF4-AF9 inh 2.2.
Screening CCCc1cn([C@H]2C[C@@H]3O[C@H](CO)CC[C@@H]3O[C@@H]2CCc2ccc(-c3ccc(OC)cc3)cc2)nn1 returned FGF22 binding inactive and AF4-AF9 inh -3.1.
`CN1CCN(C(=O)C2=C[C@H](c3ccc(Br)cc3)C[C@H](OCc3ccc(CO)cc3)O2)CC1` gave FGF22 binding inactive and AF4-AF9 inh 2.1.
For O=S(=O)(c1ccc(F)cc1)N1CCCCN2[C@H](CO)[C@@H](c3ccc(-c4ccccc4F)cc3)[C@H]2C1 the results were FGF22 binding inactive and AF4-AF9 inh 1.8.
For O=S(=O)(N1CCCCC1)n1nnc2cc3ccccc3cc21 the results were FGF22 binding inactive and AF4-AF9 inh 11.
For C=CCNC(=O)[C@H]1[C@@H]2C(=O)O[C@@H](c3ccccc3)[C@@H](c3ccccc3)N2[C@@H](c2ccc(O)cc2)[C@]12C(=O)N(C(=O)OCCOC)c1ccc(C#Cc3ccc(OC)cc3)cc12 the results were FGF22 binding inactive and AF4-AF9 inh -0.7.
For CC(C)NC(=O)N(C)C[C@@H]1OCCCC[C@H](C)Oc2ccc(NC(=O)CCCN(C)C)cc2C(=O)N([C@H](C)CO)C[C@@H]1C the results were FGF22 binding inactive and AF4-AF9 inh -1.4.
Screening C[C@H]1CCCCO[C@H](CN(C)Cc2ccc(Cl)c(Cl)c2)[C@@H](C)CN([C@@H](C)CO)C(=O)c2cc(N(C)C)ccc2O1 returned FGF22 binding inactive and AF4-AF9 inh 63*.
`O=C(OC[C@@H]1[C@H]2c3ccccc3OC1(CO)N=C1SCCCN12)c1ccccc1` gave FGF22 binding inactive and AF4-AF9 inh 2.7.
O=C1CS(=O)(=O)C(c2cccc([N+](=O)[O-])c2)N1c1ccccc1 (stereo unspecified) was read as FGF22 binding inactive and AF4-AF9 inh -2.2.

This is a subset; count on the stated rates, not on these rows.
